RecA splice inh = inhibitors of M. tuberculosis RecA intein splicing; P9WHJ3; 290,000 compounds, 0.75% hits; AID 2221; inhibition, %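 (about 9 µM by stock and volumes)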; cell-free RecA intein splicing, fluorescence; in the data active = inhibition above about 30%;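 note: 0% = vehicle wells and 100% = reference inhibitor control wells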
Target sequence (P9WHJ3 whole entry, looked up, canonical isoform): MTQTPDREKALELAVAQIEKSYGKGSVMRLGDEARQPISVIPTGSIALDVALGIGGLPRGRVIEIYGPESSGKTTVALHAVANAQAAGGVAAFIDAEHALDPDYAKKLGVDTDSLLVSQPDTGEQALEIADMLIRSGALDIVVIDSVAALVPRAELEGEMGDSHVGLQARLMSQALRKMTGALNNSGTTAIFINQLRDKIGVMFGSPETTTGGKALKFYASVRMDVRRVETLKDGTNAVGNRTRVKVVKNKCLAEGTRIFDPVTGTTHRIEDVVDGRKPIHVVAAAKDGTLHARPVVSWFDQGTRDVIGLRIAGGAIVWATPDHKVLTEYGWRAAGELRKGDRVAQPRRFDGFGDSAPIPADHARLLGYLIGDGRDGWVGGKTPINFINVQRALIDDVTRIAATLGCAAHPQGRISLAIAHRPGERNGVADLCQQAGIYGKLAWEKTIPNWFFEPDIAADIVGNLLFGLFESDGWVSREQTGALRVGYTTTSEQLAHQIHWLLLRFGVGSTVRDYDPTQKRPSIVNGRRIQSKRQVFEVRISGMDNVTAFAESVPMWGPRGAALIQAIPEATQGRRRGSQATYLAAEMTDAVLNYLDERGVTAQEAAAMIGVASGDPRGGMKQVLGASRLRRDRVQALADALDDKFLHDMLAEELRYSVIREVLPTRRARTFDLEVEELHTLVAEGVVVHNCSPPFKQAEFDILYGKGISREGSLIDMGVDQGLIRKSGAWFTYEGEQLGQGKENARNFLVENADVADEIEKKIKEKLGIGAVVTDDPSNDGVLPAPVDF
Mtb betalactam = beta-lactam sensitization of Mtb H37Rv | M. tuberculosis H37Rv growth with meropenem, percent inhibition; hits of this screen are not shown here | inhibition, % at 25 µM | 330,000 compounds, 0.27% hits;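 active = about 74% or more and at least 40 points above the plate without the antibiotic, then above 30% in a dose series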;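 note: growth measured after seven days incubation then overnight dye step; 0% = bacteria only wells and 100% = bacteria with antibiotic; twin plates without the antibiotic show which effects depend on it; some results filed as inactive read as strong as hits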
YopH inh = YopH (Yersinia) phosphatase inhibition; inhibition, %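 (about 10 µM by stock and volumes)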; AID 898; fluorescence Ex485/Em525; 140,000 compounds, 0.16% hits;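 active = inhibition of 50% or more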;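 note: controls were vehicle for no effect and minimum signal wells for full effect; inactives centre near -20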
Arbovirus anti = blocks arbovirus infection | arbovirus infection cell-based antiviral screen | inhibition, % at 10 µM | 200,000 compounds, 0.37% hits | AID 1251;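 active = inhibition from about 30%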;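 note: bluetongue infection of BSR cells; cell survival read as ATP light after 72 h; 0% = infected wells without compound and 100% = uninfected wells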
Mtb H37Rv = M. tuberculosis H37Rv growth inhibitors, H37Rv strain (AID 1626). M. tuberculosis H37Rv growth inhibition; higher % means a stronger effect. inhibition, % at 10 µM; hits with a dose series show IC50 in µM. 220,000 compounds, 0.95% hits;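 active = confirmed in a dose series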;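 note: bacteria incubated seven days before Alamar blue readout; 0% = bacteria only wells and 100% = bacteria with antibiotic wells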
Starred values were filed as active, the others as inactive; nt = no result given. Some of the compounds tested (hit frequency here may not be typical).

Values in the order: Mtb betalactam | Arbovirus anti | YopH inh | Mtb H37Rv | RecA splice inh
- CCOc1ccc(NC(=O)CCN2C(=O)c3cccc([N+](=O)[O-])c3C2=O)cc1
    19 | nt | nt | nt | -1.8
- CCOC(=O)/C(C)=N/Nc1nc(-c2ccc(NC(C)=O)cc2)cs1
    0 | nt | nt | 5% | -2.9
- COc1cc2c(cc1OC)CN(C(=O)c1ccc([N+](=O)[O-])o1)CC2
    100 | nt | nt | 31% | -2.3
- O=C(c1ccccc1F)N1C[C@H]2C[C@@H](C1)c1cccc(=O)n1C2
    3 | nt | nt | nt | 3.7
- Cc1cccc(CN(C(=S)Nc2c(C)cccc2C)c2cccnc2)c1
    -10 | -6 | nt | nt | -0.1
- Nc1c(C(=O)c2ccccc2)oc2ccccc12
    37 | 4 | -14 | 9% | -0.3
- CS(=O)(=O)N1CCN(c2ccc(NC(=O)COc3ccccc3)cc2)CC1
    3 | -4 | nt | 0% | -2.4
- CC(=O)N=c1sc(C(C)(C)C)c(C)n1C
    -3 | 0 | -3 | -6% | -0.8
- COc1ccc2oc(=N)c(C(=O)Nc3ccc(F)cc3)cc2c1
    1 | nt | nt | nt | -2.6
- C=CCSc1nc2ccccc2c(=O)n1Cc1ccccc1
    9 | 1 | nt | 3% | 3.0
- COc1cc(C2CC(=O)c3cnc(NC(=O)COc4ccccc4)nc3C2)cc(OC)c1OC (stereo not given)
    -4 | 3 | -26 | 0% | -1.9
- Brc1ccccc1OCCCN1CCCC1
    3 | nt | nt | nt | -5.3
- COc1ccc(N2C(=O)CCC(C(C)=O)=C2C)cc1
    -5 | 3 | -24 | 2% | -2.6
- CCOc1ccc(NC(=O)CCS(=O)(=O)c2ccc(Br)cc2)cc1
    38 | nt | nt | nt | -2.9
- CC(C)CNC(=O)c1cccc(NC(=O)Cc2ccc(Br)cc2)c1
    -1 | -4 | -7 | 11% | 0.6

One compound at a time, as listed above. Order of screens: Mtb betalactam | Arbovirus anti | YopH inh | Mtb H37Rv | RecA splice inh
C=CCSc1nc2ccccc2c(=O)n1Cc1ccccc1 in the list: 9 | 1 | nt | 3% | 3.0
Cc1cccc(CN(C(=S)Nc2c(C)cccc2C)c2cccnc2)c1 in the list: -10 | -6 | nt | nt | -0.1
CS(=O)(=O)N1CCN(c2ccc(NC(=O)COc3ccccc3)cc2)CC1 in the list: 3 | -4 | nt | 0% | -2.4
O=C(c1ccccc1F)N1C[C@H]2C[C@@H](C1)c1cccc(=O)n1C2 in the list: 3 | nt | nt | nt | 3.7

Going on with the list:
Values in the order: Mtb betalactam | Arbovirus anti | YopH inh | Mtb H37Rv | RecA splice inh
- CCC(C(=O)NC(C)c1ccccc1)C(=O)NC(C)c1ccccc1 (stereo not given)
    -7 | nt | nt | nt | 0.8
- C=CCNC(=S)N1CCC(C(=O)c2ccc(C)cc2)CC1
    -7 | nt | nt | nt | -1.2
- O=C(O)CCn1cc(/C=N/O)c(-c2cccc([N+](=O)[O-])c2)n1
    -10 | 2 | nt | -4% | 1.6
- COc1ccccc1N1CCN(c2ncnc3c2oc2ccccc23)CC1
    6 | -22 | -29 | -6% | 1.3
- CCN1C(=O)c2ccc(C(=O)Nc3c(C)cc(C)cc3C)cc2C1=O
    0 | nt | nt | nt | -3.2
- O=c1cccc2n1CC1CC2CN(Cc2cccc(Cl)c2Cl)C1 (stereo not given)
    23 | 2 | -23 | 7% | 8.5
- Cc1cc2c(C)nc(N/N=C/c3ccc(F)cc3)nc2o1
    -1 | -4 | -29 | -4% | -3.7
- COC(=O)N/N=C/c1ccccc1OCc1ccccc1
    -3 | -2 | -13 | 12% | -1.3
- Cc1ccc(C)c2sc(N3CCN(C(=O)c4ccc([N+](=O)[O-])o4)CC3)nc12
    99 | nt | nt | nt | 1.7
- O=C(Oc1cc(=O)n2ccccc2n1)c1ccccc1
    -12 | 5 | -23 | -1% | 4.5
- CN1CCN(c2ccc(S(C)(=O)=O)cc2[N+](=O)[O-])CC1
    -3 | 3 | -13 | 1% | -1.2
- CCOC(=O)c1csc(NC(=O)c2cc(OC)c(OC)c(OC)c2)n1
    -19 | 13 | -32 | 2% | -1.2
- O=c1cc(O)nc(SCc2ccccc2)[nH]1
    -1 | 0 | 35 | -7% | 0.0
- C=CCn1c(=O)c2c(nc3n2CC(C)CN3Cc2ccccc2)n(C)c1=O (stereo not given)
    -3 | nt | nt | nt | 4.1
- COc1cc(C(=O)O)c2c(c1C)OC(=O)c1c(C)cc(O)c(C=O)c1O2
    3 | nt | nt | -3% | nt

Values in the order: Mtb betalactam | Arbovirus anti | YopH inh | Mtb H37Rv | RecA splice inh
- O=C(c1ccco1)N1CCN(Cc2nnc(-c3ccccc3)o2)CC1
    5 | nt | nt | nt | -3.4
- CC(C)(C)NC(=O)/C(=C\c1ccco1)NC(=O)c1cccs1
    2 | 4 | -24 | -5% | 1.7
- CN(CC(=O)Nc1ccccc1Br)C(=O)CCCSc1nc2ccccc2[nH]1
    -1 | nt | nt | nt | 2.3
- Nc1ccc(Oc2ccc([N+](=O)[O-])cc2[N+](=O)[O-])cc1
    15 | -1 | -25 | 10% | 6.6
- Cc1ccc(NC2c3ncccc3C(=O)N2C2CCCCC2)cc1C (stereo not given)
    -1 | 40* | -12 | 11% | 1.9
- O=C(NC1CCCC1)C(c1cccnc1)N(CCc1ccccc1)C(=O)c1ccco1 (stereo not given)
    -2 | 1 | nt | -12% | 3.5
- CCOc1ccc(NS(=O)(=O)c2cc(NC(=O)c3cccc(C)c3)ccc2Cl)cc1
    14 | -15 | 3 | 14% | 10
- CCOc1ccc(C(=O)/C=C/c2ccc(SC)cc2)cc1
    99 | 13 | -68 | -1% | 14
- O=C(CNc1cccc(C(F)(F)F)c1)N/N=C/c1cn(-c2ccccc2)nc1-c1ccccc1
    27 | -23 | -5 | 8% | -0.8
- COc1ccc(CCN2CC(C(=O)N(C)CCOc3ccccc3)CCC2=O)cc1 (stereo not given)
    3 | nt | nt | nt | 1.4
- Clc1ccccc1Cc1noc(CN2CCN3CCCC3C2)n1 (stereo not given)
    -5 | -5 | nt | -3% | -2.5
- CC(OC(=O)CNS(=O)(=O)c1ccc(C#N)cc1)C(=O)Nc1ccc(Cl)cn1 (stereo not given)
    -5 | nt | nt | nt | 1.2
- COC(=O)c1ccc2c(=O)n(CCCN3CCCC3=O)c(=S)[nH]c2c1
    -2 | 10 | 6 | -4% | -0.4
- COCCNC(=O)CSc1nc(-c2ccc(OC)c(OC)c2)cc(C(F)(F)F)n1
    3 | 2 | -23 | -2% | -2.2
- O=c1[nH]c(=S)n(-c2ccccc2F)c(O)c1C=NCCN1CCNCC1
    -2 | nt | nt | nt | -4.4

Values in the order: Mtb betalactam | Arbovirus anti | YopH inh | Mtb H37Rv | RecA splice inh
- CC(=O)Nc1ccc(N2CCCCC2)c(C(=O)Nc2cccc(C)c2)c1
    -3 | -9 | -5 | 5% | 6.4
- Cc1ccc(-n2c(P(C)(=O)O)nc3ccccc32)cc1
    -1 | -5 | nt | 1% | -1.5
- CN(CC(=O)Nc1cccc(F)c1)C(=O)CCCN1C(=O)c2cccc3cccc(c23)C1=O
    -17 | nt | nt | nt | 1.0
- Cc1ccc(S(=O)(=O)NCc2ccncc2)c(C)c1C
    3 | -1 | nt | 4% | 2.2
- CCc1ccccc1N1C(=O)CC(N2CCc3ccccc32)C1=O (stereo not given)
    -13 | 1 | nt | -12% | 0.1
- Cc1ccc(-n2nnnc2CSc2nnc(-c3ccc(O)cc3)o2)cc1
    -8 | 6 | 0 | 8% | -2.9
- CCOC(=O)c1ccc(N2CN(CC)CNC2=S)cc1
    94 | -15 | -26 | 18% | -0.4
- CCOC(=O)CSCC(=O)Nc1ccc(S(=O)(=O)N2CCCCC2)cc1
    0 | 4 | -14 | -14% | -3.3
- COc1ccccc1N1CCN(C(=O)c2cc(C)oc2C)CC1
    -4 | 3 | nt | -7% | -1.4
- COc1ccc(-n2ccsc2=S)cc1
    6 | 0 | -32 | -2% | nt
- COCCCNC(=S)Nc1ccc2c(c1)OCCO2
    -6 | -11 | -23 | 4% | 1.9
- CC(=O)c1sc(=S)n(-c2ccccc2)c1C
    0 | nt | nt | 7% | -11
- COc1ccccc1CNC(=O)c1cc(S(=O)(=O)N2CCCCC2)c[nH]1
    -8 | nt | nt | nt | 1.4
- CC12CCC3C(CC=C4CC(O)CCC43C)C1C/C(=C\c1ccccc1F)C2=O (stereo not given)
    86 | -32 | -32 | 16% | -2.2
- O=[N+]([O-])c1ccc(-c2cn3c(n2)SCC3)cc1
    1 | nt | nt | nt | -1.2

Values in the order: Mtb betalactam | Arbovirus anti | YopH inh | Mtb H37Rv | RecA splice inh
- Cn1c(=O)c2c(nc(NCCO)n2CCCc2ccccc2)n(C)c1=O
    6 | nt | nt | nt | 1.8
- CCCCC(SCC(=O)Nc1ccccc1)C(=O)O (stereo not given)
    -2 | 6 | 14 | -1% | -1.2
- CC1=C(C#N)C(C(F)(F)F)(C(F)(F)F)N=C(c2ccco2)N1
    1 | 3 | -8 | -4% | -2.3
- NC1=NC(=O)/C(=C\c2ccc(O)c([N+](=O)[O-])c2)S1
    47 | 8 | nt | 1% | 4.1
- CCCCN(C(=O)CCSc1ccc(F)cc1)c1c(N)n(Cc2ccccc2)c(=O)[nH]c1=O
    0 | nt | nt | nt | 0.4
- CC(=O)Nc1ccc(N(CC(=O)NCC2CCCO2)C(=O)CCC(=O)Nc2cc(C)on2)cc1 (stereo not given)
    -1 | nt | nt | nt | 0.9
- CC(=O)N1c2ccc(S(=O)(=O)N3CCCC3)cc2CC1C(=O)NCc1cccc(F)c1 (stereo not given)
    -3 | nt | nt | nt | -1.3
- O=Cc1ccc2oc3nc4n(c(=O)c3c(=O)c2c1)CCCS4
    100 | 12 | -19 | 0.44µM* | 0.5
- CCCCN(C)CCNC(=O)c1cn(C)c(=O)c2c1c1ccccc1n2C
    -1 | nt | nt | nt | 0.8
- Cc1ccc(C)c(S(=O)(=O)/N=C2\C=C(NS(=O)(=O)c3ccccc3)C(=O)c3ccccc32)c1
    1 | nt | nt | nt | 75*
- O=C(Nc1ccccc1C(=O)O)c1ccc2ccccc2n1
    27 | 42* | -26 | 16% | -1.4
- COc1ccc(-c2ccc(NS(=O)(=O)c3cc([N+](=O)[O-])c(C)c([N+](=O)[O-])c3)cc2)nn1
    -2 | nt | nt | nt | 0.0
- COc1cc(S(=O)(=O)N(Cc2cccnc2)Cc2ccco2)ccc1-n1cnnn1
    -8 | 2 | 0 | -2% | 1.0
- Cc1ccc(-n2c(=S)[nH]c3sc4c(c3c2=O)CCc2ccccc2-4)cc1
    -1 | 6 | -30 | -2% | -1.8
- CCNC(=O)CC1C(=O)N(CC)C(=S)N1NC(=O)c1ccc(Cl)cc1 (stereo not given)
    6 | 6 | 7 | 2% | 1.3

Values in the order: Mtb betalactam | Arbovirus anti | YopH inh | Mtb H37Rv | RecA splice inh
- COc1ccc(C2CC3(O)CC(C#N)(C(=O)N3)C2(C#N)C#N)cc1 (stereo not given)
    -6 | nt | nt | -17% | nt
- CCN(CCCNC(=O)CCCCn1c(=O)[nH]c2ccccc2c1=O)c1ccccc1
    23 | 3 | -4 | -5% | -2.0
- Cc1ccc(Cl)cc1NC(=O)COC(=O)CC1CC2CCC1C2 (stereo not given)
    0 | 0 | -24 | 0% | 8.0
- COc1ccccc1OCCOc1ccccc1/C=N/n1cnnc1
    -6 | 1 | -30 | -1% | -0.4
- O=C(NCCCN1CCOCC1)c1ccc2c(c1)N(Cc1ccccc1)CCS2
    -3 | nt | nt | -6% | -0.3
- CCn1c2ccccc2c2cc(NC(=O)C(C)C)ccc21
    5 | -3 | -133 | 4% | -3.7
- O=C(NCC1CCCO1)C1CCN(S(=O)(=O)c2ccc(Br)cc2)CC1 (stereo not given)
    1 | nt | nt | nt | 1.4
- COc1ccccc1-n1c(CNC(=O)c2ccco2)nnc1SCC(=O)Nc1ccc(F)cc1
    -5 | 0 | -44 | -10% | -0.5
- CC(C)(C)NS(=O)(=O)c1ccc(CCC(=O)Nc2cc(Cl)ccc2Oc2ccccc2)cc1
    -5 | -16 | -6 | 7% | -2.2
- COc1cccc(/C=C/C(=O)OCC(=O)c2c[nH]c3ccccc23)c1OC
    5 | -10 | -33 | 6% | 2.2
- CCOc1ccc(NC(=O)c2cc(SC)ccc2Cl)cc1
    -2 | -12 | -30 | 6% | -1.0
- Clc1ccccc1-c1nc(-c2ccccc2)n[nH]1
    -11 | 1 | 5 | -2% | 0.7
- O=S(=O)(Nc1ccncc1Cl)c1ccc2ccccc2c1
    -8 | 1 | nt | 1% | -4.7
- N#C/C(C(=O)N1CCCCC1)=C1\Nc2ccccc2S1
    81 | -1 | -26 | 0% | 16
- C=CCN(c1ccc(F)cc1)S(=O)(=O)c1cc(C(=O)OCC(=O)N(C)C2CCS(=O)(=O)C2)ccc1Cl (stereo not given)
    2 | nt | nt | -2% | -1.4
- Cc1ccc(C)c(SCC(=O)Nc2cccc(S(=O)(=O)NC3=NCCCCC3)c2)c1
    -4 | -4 | -46 | -5% | 2.8
